Screening results from PubChem BioAssay.
LYP act – activators of human LYP (PTPN22) phosphatase. Q9Y2R2. recombinant LYP, DiFMUP fluorescence; 0 = plate median, 100 = signal doubled. AID 697. hit rate 0.11% among 96,000. activation, % at 2 µM;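 active = activation at 2 µM above a set limit, the mean plus 5 SD, cut at about 37% in these data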
Target sequence (Q9Y2R2 whole entry, looked up): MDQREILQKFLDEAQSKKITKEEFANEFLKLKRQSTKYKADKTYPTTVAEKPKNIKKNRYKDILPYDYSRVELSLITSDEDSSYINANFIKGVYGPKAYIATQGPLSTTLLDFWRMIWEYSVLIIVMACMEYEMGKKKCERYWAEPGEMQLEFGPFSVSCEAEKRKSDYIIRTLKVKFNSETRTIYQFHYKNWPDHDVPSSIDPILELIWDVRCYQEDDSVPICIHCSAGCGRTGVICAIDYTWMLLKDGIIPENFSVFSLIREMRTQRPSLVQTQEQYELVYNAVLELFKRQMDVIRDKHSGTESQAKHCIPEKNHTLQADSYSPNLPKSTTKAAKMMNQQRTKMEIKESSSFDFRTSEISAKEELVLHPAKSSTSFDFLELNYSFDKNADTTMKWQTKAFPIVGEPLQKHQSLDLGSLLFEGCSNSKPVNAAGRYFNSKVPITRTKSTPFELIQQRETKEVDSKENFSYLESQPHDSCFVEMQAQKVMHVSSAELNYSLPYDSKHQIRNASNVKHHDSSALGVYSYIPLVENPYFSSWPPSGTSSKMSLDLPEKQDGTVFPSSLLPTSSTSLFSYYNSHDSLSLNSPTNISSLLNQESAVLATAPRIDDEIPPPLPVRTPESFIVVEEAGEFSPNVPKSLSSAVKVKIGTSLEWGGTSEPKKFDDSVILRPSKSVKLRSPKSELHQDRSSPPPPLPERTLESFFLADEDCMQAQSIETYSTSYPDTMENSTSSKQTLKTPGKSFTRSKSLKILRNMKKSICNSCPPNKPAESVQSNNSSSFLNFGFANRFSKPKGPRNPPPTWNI
F-actin modifier – alters cytoskeleton assembly in HUVEC cells | hit rate 0.18% among 91,000 | HUVEC TNFa F-actin phalloidin imaging, high content | inhibition, % at 2 µM | AID 836;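 active = inhibition above the batch mean plus 3 SD and confirmed as a hit by visual image inspection, cut at about 30% in these data, passing the limit was not always enough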; note: strong numbers were not always called active
Pyk2 oligo antag – Pyk2 (human) oligomerization antagonism; hit rate 0.83% among 99,000; z-score (the deposit names both 25 µM and 10 µM); AID 1347419; Q293 cells, Pyk2 FERM NanoBiT luminescence; active compounds read low; Q14289;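 active = Z-score of -3 or lower, scaled per plate to the spread of control and sample wells; inactive = z-score above -3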;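 note: negative z-score means lost luminescence so less FERM oligomerization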
HUVEC tox IL1B – HUVEC cytotoxicity counter-screen, IL-1B stimulated; HUVEC cell count loss, Hoechst imaging; cell count reduction, % at 2 µM; hit rate 0.41% among 94,000;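 active = cell count reduction more than 3 SD above the screen-wide mean, cut at about 70% in these data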;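 note: normalized per plate to untreated control cells as the no-loss baseline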
PTPN22 inh 2 – inhibitors of human LYP (PTPN22) phosphatase. inhibition, % at 2 µM. recombinant LYP catalytic domain, DiFMUP fluorescence. AID 640. hit rate 0.21% among 96,000;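 active = inhibition at 2 µM at or above a set limit, the screen mean plus 3 SD, cut at about 24% in these data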;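 note: 0% = DMSO with enzyme and 100% = enzyme fully blocked by orthovanadate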
TNFa cytotox – toxic to HUVEC cells under TNF alpha stimulation; HUVEC TNFalpha-stimulated, Hoechst cell count, imaging; cell count reduction, % at 2 µM; hit rate 0.17% among 93,000;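 active = cell count reduction exceeding the screen mean by over 5 SD, scaled to untreated wells per plate, cut at about 78% in these data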;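 note: cells counted after 24 h of TNF alpha exposure following the 1 h pretreatment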
ERa coact inh – ER-alpha (human) coactivator binding inhibition. P03372. TR-FRET ER-alpha LBD / SRC-1 peptide, estradiol-bound. inhibition, % at 25.6 µM. hit rate 1.7% among 86,000; in the data active = inhibition above about 50%;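 note: 0% = receptor plus peptide control and 100% = peptide only without receptor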
VCAM1 TNFa inh – reduces TNF alpha induced VCAM1 expression in HUVEC. HUVEC TNFa-induced VCAM-1 immunofluorescence, high-content imaging. inhibition, % at 2 µM. hit rate 0.48% among 95,000. AID 802;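 active = inhibition above the batch mean plus 3 SD, with images confirmed as a hit by eye, cut at about 37% in these data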;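 note: 0% = TNF-stimulated DMSO wells and 100% = unstimulated control wells; not every result past the cut was called active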
Numbers without * were called inactive; nt = not tested or not shown; [ ] = remark or other dose. A portion of the library (hit frequency here may not be typical).

Fields: LYP act	F-actin modifier	Pyk2 oligo antag	HUVEC tox IL1B	PTPN22 inh 2	TNFa cytotox	ERa coact inh	VCAM1 TNFa inh
- O=C(CN1CCC(NC(=O)c2ccc(F)cc2)CC1)NCc1ccccc1F
→ -5.9	2.3	0.44	-18.6	4.2	7.0	3.3	0.2
- CCOC(=O)c1sc(NC(=O)CSc2nc(C)cc(-c3ccccc3)n2)c(C#N)c1C
→ 2.6	-13.3	-0.29	37.5	1.0	-8.2	nt	11.3
- CCN(CC)S(=O)(=O)c1cccc(NC(=O)COC(=O)c2cc(C)oc2C)c1
→ 9.8	-2.9	0.24	5.6	-10.0	-7.8	nt	24.9
- COc1ccc(C(=O)c2no[n+]([O-])c2C(=O)c2ccc(OC)cc2)cc1
→ -18.9	-12.5	0.24	-2.8	17.6	-20.2	nt	-7.3
- COc1ccc(-c2nnc3ccc(SCC(N)=O)nn23)cc1OC
→ -1.2	10.1	0.09	17.5	0.8	-5.6	-2.3	-13.4
- COc1cc2c(cc1NC(=O)c1cccc([N+](=O)[O-])c1)oc1ccccc12
→ -7.2	-23.1	0.92	78.3*	12.1	-5.5	nt	14.2
- O=C(c1ccccc1)N1CCN(CC#Cc2ccccc2)CC1
→ -1.5	28.1	-0.59	-20.6	5.4	-7.9	0.5	-6.3
- CCN1C(=O)CSc2ccc(C(=O)NC3CCCCC3)cc21
→ -5.3	-29.6	-0.47	11.0	3.9	3.3	15.5[fluorescence artefact?]	12.9
- CCOc1ccc(-c2cc(C(=O)O)c3ccccc3n2)c(OCC)c1
→ -0.5	-2.4	-0.01	-33.1	-2.4	-20.3	-0.7	0.8
- COc1ccc(C(=O)N2CCC(n3c(C)nc4cc(F)ccc43)CC2)cc1OC
→ -5.1	2.3	-0.55	-32.2	6.2	-24.0	-9.3[fluorescence artefact?]	15.5
- Nc1cc(=O)nc(SCC(=O)N(C2CCCCC2)C2CCCCC2)n1-c1ccccc1
→ -12.6	13.1	-0.18	13.2	15.7	3.8	nt	12.6
- CCOc1ccc(C(=O)OCC(=O)NCc2ccco2)cc1OCC
→ -0.9	14.8	0.49	0.7	-3.2	-11.0	70.0*[fluorescence artefact?]	-10.9
- CCOc1ccccc1CN1CCC(O)CC1
→ 16.2	-1.3	0.38	nt	-15.7	-31.0	-0.6	16.2
- CC(C)(C)c1ccc(C2(C)NC(=O)N(CC(=O)c3ccc[nH]3)C2=O)cc1 (configuration not stated)
→ -18.3	-3.2	-0.58	-22.9	20.4	-5.2	13.1	8.3
- CC1(C)CC(=O)C(C=Nc2ccc3[nH]ncc3c2)=C(O)C1
→ 1.7	19.2	-0.73	-57.0	-3.6	-23.6	-3.0[fluorescence artefact?]	-3.8
- CCC(C)(C)n1nnnc1C(c1cccs1)N1CCc2ccccc21 (configuration not stated)
→ 16.8	19.5	-0.94	-22.5	-19.4	-18.8	-2.9	5.4
- COCCNC(=O)CN(c1ccc(OC)c(OC)c1)S(=O)(=O)c1ccc(C)cc1
→ 11.0	15.4	-0.04	-21.2	-11.1	-36.3	nt	-1.7
- CC1CCc2nc(NC(=O)CN3CCN(c4ccc(F)cc4)CC3)sc2C1 (configuration not stated)
→ -1.6	-3.6	-0.69	-3.1	1.9	-16.8	-3.6	10.4
- COc1ccc(/C(O)=C2\C(=O)C(=O)N(c3cc(C)on3)C2c2ccc(OC)c(OC)c2)cc1OC (configuration not stated)
→ 6.4	-13.6	-0.7	7.8	-7.9	-17.1	-0.7	-16.1
- CCOc1ccc(C=NC23CN4CN(CN(C4)C2)C3)cc1
→ 18.4	20.1	0.32	-5.1	-20.2	-52.1	nt	15.4
- O=C1c2ccccc2C(=O)N1n1c(=O)[nH]c2ccccc2c1=O
→ -3.3	11.9	0.85	-41.4	3.7	-45.2	-14.6	4.6
- CCCCOc1ncnc2c1[nH]c1ccc(OCC)cc12
→ 4.0	14.4	0.25	-6.8	-0.6	-11.4	-0.9	15.2
- CC(=O)N1CCN(c2nc(C)nc3sc4c(c23)CCC(C)C4)CC1 (configuration not stated)
→ 9.3	9.2	0.36	5.5	-7.0	-9.8	24.3	13.4
- Cc1ccc(C(=O)OCC(=O)NCc2ccco2)cc1
→ 15.0	6.6	0.57	18.2	-12.2	-9.4	16.6	-11.3
- Cn1c(=O)n(CC(=O)N2CCN(c3nnc(-c4ccccc4)c4ccccc34)CC2)c2ccccc21
→ -7.9	-9.8	-0.59	-7.2	7.5	22.0	-2.9	19.3
- CC(C)(C)C(=O)Nc1ccc2c(c1)-c1cc(NC(=O)C(C)(C)C)ccc1C2
→ -11.3	26.4	0.91	-7.6	13.2	-2.5	nt	13.6
- C(=N\Nc1ncnc2sc3c(c12)CCC3)/c1ccncc1
→ 9.4	5.7	-1.07	nt	-3.7	-12.4	nt	34.3
- CC1CCN(C(=O)CCCNC(=O)Cn2cnc3sc4c(c3c2=O)CCCC4)CC1
→ -1.3	-3.4	-0.28	21.0	2.2	7.0	-2.0	12.9
- CCCOC1(NC(=O)c2ccccc2)C(C)=CC(=O)C=C1C
→ 1.0	nt	1.69	-3.8	-2.6	-13.6	-3.2	-14.2
- Cc1cc(C)n(-c2ccc(C(=O)Nc3sccc3C(N)=O)cc2)n1
→ 13.3	46.3	-1.53	3.0	-14.4	0.0	26.8[fluorescence artefact?]	0.8
- CCOC(=O)Nc1cccc(NC(=O)c2cc(OC)cc(OC)c2)c1
→ -0.8	-2.1	0.22	9.7	2.4	5.4	8.6	-15.4
- Cc1cc(C)nc(N2CCC(C(=O)NC3CCCCCC3)CC2)n1
→ -8.8	17.6	-0.27	-12.9	4.9	-34.4	2.3	14.2
- O=C(Nc1ccc2c(c1)OCCO2)c1cc(-c2ccccc2)nc2ccccc12
→ -1.1	27.2	-1.88	-1.1	5.8	-2.6	nt	-6.1
- Cc1ccc(-c2nn3c(C)nnc3s2)cc1NC(=O)c1ccc(Br)o1
→ -0.7	-4.7	nt	3.9	-2.1	10.7	2.5	16.9
- Cc1cccc(CCNc2nc3ccccc3n3nnnc23)c1
→ -2.3	34.8	0.24	-34.6	6.7	-27.2	nt	4.2
- CCCCCNCc1cccc(Br)c1
→ 10.1	-4.2	-0.83	nt	-4.3	-5.7	nt	-0.6
- Cc1cc(C(F)(F)F)c2c(n1)sc1c(O)cc(=O)[nH]c12
→ 3.9	-0.1	0.27	-34.0	-6.8	-25.2	-1.1	5.2
- Cc1ccc(-c2nn3c(C)nnc3s2)cc1NC(=O)c1ccc(OC(C)C)cc1
→ 6.2	-2.6	nt	-3.4	-9.2	-17.4	-1.6	6.3
- C=CCc1cc(OC)ccc1OCCON1C(=O)CCC1=O
→ -0.5	5.7	1.08	-10.2	-0.1	-41.9	4.3	16.1
- COc1ccc(N=c2oc3ccc(OC)cc3cc2-c2nc3ccccc3[nH]2)cc1
→ -1.7	-12.3	-1.33	22.4	4.0	-0.9	nt	50.5*

Shown bar-delimited: entries from further up.
Compound | LYP act | F-actin modifier | Pyk2 oligo antag | HUVEC tox IL1B | PTPN22 inh 2 | TNFa cytotox | ERa coact inh | VCAM1 TNFa inh
CCCCOc1ncnc2c1[nH]c1ccc(OCC)cc12 | 4.0 | 14.4 | 0.25 | -6.8 | -0.6 | -11.4 | -0.9 | 15.2
CC(=O)N1CCN(c2nc(C)nc3sc4c(c23)CCC(C)C4)CC1 (configuration not stated) | 9.3 | 9.2 | 0.36 | 5.5 | -7.0 | -9.8 | 24.3 | 13.4
Cc1ccc(C(=O)OCC(=O)NCc2ccco2)cc1 | 15.0 | 6.6 | 0.57 | 18.2 | -12.2 | -9.4 | 16.6 | -11.3
Cn1c(=O)n(CC(=O)N2CCN(c3nnc(-c4ccccc4)c4ccccc34)CC2)c2ccccc21 | -7.9 | -9.8 | -0.59 | -7.2 | 7.5 | 22.0 | -2.9 | 19.3
CC(C)(C)C(=O)Nc1ccc2c(c1)-c1cc(NC(=O)C(C)(C)C)ccc1C2 | -11.3 | 26.4 | 0.91 | -7.6 | 13.2 | -2.5 | nt | 13.6
C(=N\Nc1ncnc2sc3c(c12)CCC3)/c1ccncc1 | 9.4 | 5.7 | -1.07 | nt | -3.7 | -12.4 | nt | 34.3
CC1CCN(C(=O)CCCNC(=O)Cn2cnc3sc4c(c3c2=O)CCCC4)CC1 | -1.3 | -3.4 | -0.28 | 21.0 | 2.2 | 7.0 | -2.0 | 12.9
CCCOC1(NC(=O)c2ccccc2)C(C)=CC(=O)C=C1C | 1.0 | nt | 1.69 | -3.8 | -2.6 | -13.6 | -3.2 | -14.2

Following part
Fields: LYP act	F-actin modifier	Pyk2 oligo antag	HUVEC tox IL1B	PTPN22 inh 2	TNFa cytotox	ERa coact inh	VCAM1 TNFa inh
- COc1ccc(C(C#N)Nc2ccc(C)cc2)cc1 (configuration not stated)
→ -12.8	-2.6	0.2	-28.6	11.8	-7.3	-1.3	3.0
- NC(=O)CSc1nnc(Cn2c(=O)sc3ccccc32)n1-c1cccc(Cl)c1
→ -12.2	5.3	0.35	-11.9	9.5	8.0	-4.0	-22.4
- CCOC(=O)Cn1c(C)c(C#N)c2ccccc21
→ -2.1	10.2	-1.19	-7.2	-2.0	-20.8	6.6[fluorescence artefact?]	8.1
- COc1ccc(-c2nc(C#N)c(N3CC(C)OC(C)C3)o2)cc1OC (configuration not stated)
→ 3.0	12.6	0.08	11.5	-7.7	-11.3	-27.5	-4.0
- CN(C)c1cccc(C(=O)OCC(=O)NCc2ccco2)c1
→ 4.4	4.4	0.76	-10.2	1.8	-24.8	0.9	-9.9
- COc1ccccc1N1CCN(CCOc2c(OC)cccc2OC)CC1
→ -5.0	6.1	0.63	12.6	5.0	12.0	-1.2	-21.4
- Cc1cccc(NC2SC(=O)N(CC(=O)O)C2=O)c1 (configuration not stated)
→ -2.1	-35.8	1.32	-23.6	2.5	-16.0	-11.3	14.2
- Nc1nc(-c2ccccc2)nc(-c2ccccc2O)n1
→ 1.7	9.6	-2.46	-18.7	-1.9	-6.2	nt	-5.6
- CCOC(=O)N1CCN(S(=O)(=O)Cc2ccccc2)CC1
→ 0.2	7.6	-0.3	-24.5	0.5	-29.0	3.0	-0.7
- CC(=O)Nc1ccc2nc(-c3ccncc3)[nH]c2c1
→ -2.8	14.0	0.2	6.3	5.1	0.9	-0.8	16.0
- COCCCN1C(=O)c2[nH]nc(-c3cc(C)cc(C)c3O)c2C1c1ccc(O)c(OC)c1 (configuration not stated)
→ -10.4	23.6	-1.92	-5.4	9.9	-24.0	1.5	-11.0
- CCC(C)(C)n1nnnc1CN1CCN(c2nc3cc(OC)ccc3cc2C#N)CC1
→ -10.4	1.4	-0.25	-41.3	8.4	-23.2	5.7	0.1
- O=C(NC1(C(F)(F)F)C(=O)Nc2c1c(=O)[nH]c(=O)n2-c1ccccc1)c1ccncc1 (configuration not stated)
→ 1.4	-4.1	0.03	nt	-4.0	-19.2	-15.0	3.7
- COc1ccc(CNc2cccc(F)c2)cc1Br
→ -1.3	-2.5	-0.58	nt	0.8	1.2	-8.2	16.2
- COc1ccc(OC)c(NC(=O)Cc2coc3cc(C)cc(C)c23)c1
→ 16.5	14.9	-0.6	9.2	-17.8	-19.2	-3.5	-0.8
- CC(C)(C)c1cc(NC(=O)C2CCCO2)no1 (configuration not stated)
→ -0.8	-6.3	0.79	-0.5	0.9	-25.7	-8.2	-16.8
- CCOC(=O)c1c(NC(=O)CSc2nnnn2-c2ccccc2)sc2c1CCC(C)C2 (configuration not stated)
→ -0.9	10.3	1.05	-55.4	-1.7	-14.6	-6.1	5.0
- Cc1cc(C(F)(F)F)nc(Nc2nc(C)c3ccccc3n2)n1
→ -0.5	3.6	0.85	-2.2	-0.2	-4.2	1.0	-0.8
- Cc1ccc2cc(C(=O)O)c(C)nc2c1
→ -6.0	0.1	1.06	-5.4	7.6	7.3	1.6	1.9
- CCOC(CNC(=O)c1cccn2c(=O)c3cc(Cl)ccc3nc12)OCC
→ -2.8	-11.2	-0.33	8.9	1.9	-3.9	2.0	7.5
- O=c1c2cccc3c2c(nn1-c1ccccc1)-c1ccccc1-3
→ -17.5	1.7	-0.26	-6.6	19.5	-27.1	nt	0.3
- CCc1ccc(S(=O)(=O)Nc2ccc(-c3nc4cccnc4s3)cc2)s1
→ -5.9	1.2	nt	1.4	2.8	-32.1	-10.6	-8.1
